BJeLR viability – kills HRASV12-expressing BJeLR cells; inhibition, % (concentration not given with the values); 0.17% of 300,000 active; BJeLR (HRASV12) viability, CellTiter-Glo ATP luminescence, 48 h; reference of the scale not given here; AID 1554;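 active means replicate mean above 50%; inconclusive means above 50% but judged a plate artefact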;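 further: 50 nL library stock added to about 25 µL; numbers are from one replicate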
Bead autofluor – flagged as autofluorescent in microsphere protease counterscreen | fluorescence intensity (concentration not given with the values) | AID 624483 | compound autofluorescence counterscreen, microsphere flow cytometry; stronger effect = higher value | 3.1% of 360,000 active;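 active means at least 3 SD above the mean of all compounds, about 16000 in these data; inconclusive means too few beads counted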;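 further: 100 nL of 1 mM stock went into each well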
Mtb hypoxia rep – Mtb hypoxia fluorescent reporter inhibition | M. tuberculosis hypoxia-regulated fluorescent reporter, fluorescence | fluorescence inhibition, % (concentration not given with the values) | 0.1% of 300,000 active;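 active means 35 to 45% if threefold the growth effect, above 45% if 1.5-fold the growth effect; inactive means the rest, general growth blockers included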;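 further: wells of about 50 µL received 100 nL stock; 0% = vehicle wells and 100% = reference inhibitor wells; whole bacteria with a GFP reporter of the hypoxia response; strong numbers were not always called active; many hits fall short of the cut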
Sa ugtP lethal – compounds lethal to S. aureus RN4220 ugtP deletion mutant; OD600 growth, 16 h; some inactives read as strong as hits; growth inhibition, % (test concentration not listed); 0.54% of 330,000 active; AID 1259309;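 active means z-score under -3 and OD600 up to 0.15 on both plates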;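 further: plate controls were untreated wells for no effect and antibiotic for full effect; wells of about 80 µL received 100 nL stock; the first replicate is given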
PrP 5UTR inh – suppresses PrP 5' UTR mRNA reporter expression; inhibition, % (no concentration beside the values); 0.35% of 340,000 active; cell-based PrP 5' UTR mRNA reporter, plate reader;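 active means every replicate at 50% or more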;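 further: 0 = median of the neutral control wells; tested in H4 reporter cells; numbers are from one replicate; inactives centre near -14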
RN4220 kill – S. aureus RN4220 growth inhibition | OD600, 16 h | inhibition, % (concentration not given with the values) | 0.33% of 330,000 active | AID 1259311;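 active means z-score of -3 or lower and OD600 up to 0.18 on both plates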;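 further: plate controls were untreated cells for no effect and reference antibiotic for full effect; stock transfer was 100 nL into about 80 µL; one replicate is shown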
Mtb hypoxia rep growth – second read-out of Mtb hypoxia rep, no call of its own (marks repeat the call); growth inhibition, %; measured here: M. tuberculosis growth (absorbance);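 0% = vehicle and 100% = reference antibiotic; read after six days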
Starred values were filed as active, the others as inactive; u = inconclusive; x = not tested or not shown. Not a hit list. Share with any hit: about 4.1%.

SMILES	BJeLR viability	Bead autofluor	Mtb hypoxia rep	Mtb hypoxia rep growth	Sa ugtP lethal	PrP 5UTR inh	RN4220 kill
COc1cc2nc(SCc3ccc(C(F)(F)F)cc3)n(Cc3cccs3)c(=N)c2cc1OC	-11.6	8413	6.3	7.9	-1.3	-18.5	10.3
Cc1ccc(/C=C2\Oc3cc(OCC(=O)NN)ccc3C2=O)o1	1.7	3902	-7.0	6.6	3.9	-12.2	7.3
COc1ccccc1Nc1nc(-c2cccc([N+](=O)[O-])c2)cs1	3.0	6149	9.3	-7.4	25.6	-13.0	-3.4
Fc1ccccc1Cn1nnc2c(-n3ccnc3)ncnc21	-19.1	3809	x	x	2.4	-14.9	3.6
COc1ccccc1-c1coc2cc(OC(=O)/C=C/c3ccccc3)ccc2c1=O	4.9	8792	0.5	-1.7	-0.8	-30.4	2.8
C=CCc1cccc2cc(C(=O)Nc3ccccc3C(=O)O)c(=O)oc12	x	4531	-3.1	-2.8	6.3	-5.2	2.7
CCCCn1c(N)c(N(C)C(=O)c2cc3c(s2)CCCCC3)c(=O)[nH]c1=O	x	9229	6.5	6.7	2.1	-4.3	5.7
COC(=O)C1=CC(C(=O)OC)C2C3=C(C(=O)[C@]2(C)NC(=O)c2ccccc2)C(C)n2c(=O)n(-c4ccccc4)c(=O)n2C3C1 (some centres not stated)	x	x	11.9	6.3	2.2	x	2.6
COc1ccccc1Nc1cc(C)nc(Nc2ccccc2OC)n1	x	6119	4.7	10.8	-8.3	-6.8	4.1
Cc1cc(Cl)ccc1OCC(=O)NCCC(=O)O	0.2	6946	3.1	-3.0	3.1	-18.2	-0.2
COc1ccc(CCNC(=O)CNS(=O)(=O)c2cccs2)cc1OC	1.1	10596	11.7	4.1	3.3	-40.8	3.1
Cc1cc(NCC2CCCCC2)nc2ccccc12	-4.9	5597	-28.5	6.6	8.1	-24.0	2.9
COCCOC(=O)C1=C(C)N=C2SCCC(=O)N2C1c1cccs1 (configuration not stated)	-19.5	3268	2.3	9.0	7.7	-20.2	3.2
Cc1ccc(/C=N\NC(=O)c2ccc(Cn3cc(Br)c([N+](=O)[O-])n3)o2)o1	-0.3	2274	x	x	x	1.3	x
O=C(CN1CCCCC1)NNc1nc(-c2ccccc2)c2cc(Br)ccc2n1	-8.3	3600	11.0	14.9	15.9	-12.8	0.6
COC(=O)c1ccc(NC(=O)CN(c2ccc(OC)cc2)S(C)(=O)=O)cc1	4.6	3203	9.3	0.8	-3.3	-65.0	-1.5
CN(c1ccc(OC(=O)CN2C(=O)NC3(CCCC3)C2=O)cc1)S(=O)(=O)c1ccccc1	-0.8	u	10.2	6.4	1.3	-9.5	2.3
Cc1ccc(S(=O)(=O)N/N=C/c2cccc([N+](=O)[O-])c2)cc1	-11.9	1969	x	x	x	-15.1	x
O=C(Nc1ccc2c(c1)OCCO2)N1CCOCC1	0.5	3904	-5.8	-4.6	-9.5	-17.1	2.8
COc1ccc2c(ccc[n+]2[O-])c1	x	3784	1.6	2.9	-0.4	-20.4	2.8
Cc1nc(-c2ccc(S(=O)(=O)Nc3ccccc3C)cc2)co1	-1.4	5298	-3.0	9.0	-6.8	-0.9	6.3
O=C(CN1CCOCC1)Nc1ccc(-c2nc3ccccc3[nH]2)cc1	-9.2	23886*	6.9	5.5	-1.6	-86.5	0.1
COc1ccccc1CN(C)C(=O)CSc1nnc(C2CC2)n1C1CC1	x	4048	8.7	8.1	2.7	-15.8	3.3
COc1ccc(NC(C)(C)c2nnnn2-c2c(C)cccc2C)cc1	3.5	3732	10.6	1.5	1.6	-10.2	2.3
Cc1ccccc1C(=O)N1CCN(c2ccc(NC(=O)c3cccc(OC(C)C)c3)cc2)CC1	1.7	5747	1.2	2.0	2.8	10.6	2.8
CCOC(=O)CSC1=NC(=O)/C(=C\c2ccc(Cl)cc2)S1	-2.8	3826	7.2	1.9	1.2	-22.0	-3.3
COc1ccc(C2=CC(=O)CC(c3ccc(F)cc3)C2)cn1 (configuration not stated)	1.8	4105	3.6	11.2	-9.9	-2.6	3.4
O=C(NCc1ccccn1)C(C(=O)c1ccc(F)cc1)n1ccccc1=O (configuration not stated)	-3.0	15988	-3.2	6.9	3.9	-16.5	5.1
O=C(/C=C/c1ccccc1)NCCS(=O)(=O)N1CCN(c2ccc(F)cc2)CC1	0.3	7550	-3.3	-0.5	1.4	-22.5	0.0
Cc1noc(C)c1C(=O)Nc1nc(-c2ccc(F)c(F)c2)cs1	x	3611	9.4	6.7	6.8	-31.5	5.3
CCOCCCNC(=O)C(c1ccc(OC)cc1)N(Cc1ccc2c(c1)OCO2)C(=O)c1cnccn1 (configuration not stated)	x	5423	9.9	5.7	4.9	-4.7	16.0
COCCNC(=S)NN=C(C)c1ccccc1OC	x	x	2.8	5.3	2.3	x	1.5
CN1CCN(C(c2ccc(Cl)cc2)c2cc(Cl)c3cccnc3c2O)CC1 (configuration not stated)	-1.6	5011	x	x	x	-21.7	x
COc1cc(C(=O)Nc2ccccn2)cc(OC)c1OC	-1.6	3979	x	x	1.6	-25.7	1.9
O=C(NCc1n[nH]c(=S)n1-c1ccc(F)cc1)c1ccc(S(=O)(=O)N2CCCCC2)cc1	-11.2	4135	-7.0	1.1	9.1	-8.7	1.9
CN(C)CCC(Oc1ccccc1OCc1ccccc1)c1ccccc1 (configuration not stated)	-0.5	5774	8.7	8.3	12.2	-10.6	-2.2
O=C(Nc1ccc2oc(-c3cccnc3)nc2c1)c1ccc([N+](=O)[O-])o1	3.2	4407	x	x	29.5	-30.9	27.8
O=C(NN=Cc1ccccc1Cl)c1nc2ccc([N+](=O)[O-])cc2c(=O)[nH]1	x	x	-13.8	-1.0	1.8	x	10.5
CC12CCC(=O)N1C(C(=O)Nc1nnc(SCc3ccccc3F)s1)CS2 (configuration not stated)	4.6	u	x	x	x	-17.2	x
C=CCn1c(=O)c2ccccc2n2c(SCC(=O)NC(C)C)nnc12	4.7	3577	2.1	6.6	-0.1	-6.6	1.0
Cc1ccc(NC(=O)CS(=O)(=O)c2cn(C)c3ccccc23)c(C)c1	-0.3	5608	9.0	3.3	7.4	-9.5	0.6
CCOC(=O)Cc1csc(NC(=O)CCc2ccc(S(=O)(=O)N3CCOCC3)cc2)n1	4.6	12848	13.6	6.5	3.6	-32.4	6.2
COc1ccc(CNC(=O)CSc2nnc3c(Cl)cc(C(F)(F)F)cn23)cc1OC	0.9	2147	-1.4	2.9	4.1	4.4	-1.1
COc1ccc(N2CCN(c3oc(COc4ccccc4Cl)nc3C#N)CC2)cc1	-6.0	19893*	4.3	12.6	-6.4	-14.3	13.9
COc1ccc(-c2sc3cc(OC)c(OC)cc3c2-c2ccc(O)cc2)cc1	x	3894	-0.3	2.0	4.4	-0.8	13.0

Three compounds from above, ordered by length of the SMILES, rising.
SMILES	BJeLR viability	Bead autofluor	Mtb hypoxia rep	Mtb hypoxia rep growth	Sa ugtP lethal	PrP 5UTR inh	RN4220 kill
COCCNC(=S)NN=C(C)c1ccccc1OC	x	x	2.8	5.3	2.3	x	1.5
CN(C)CCC(Oc1ccccc1OCc1ccccc1)c1ccccc1 (configuration not stated)	-0.5	5774	8.7	8.3	12.2	-10.6	-2.2
COc1ccc(-c2sc3cc(OC)c(OC)cc3c2-c2ccc(O)cc2)cc1	x	3894	-0.3	2.0	4.4	-0.8	13.0

The list goes on.
SMILES	BJeLR viability	Bead autofluor	Mtb hypoxia rep	Mtb hypoxia rep growth	Sa ugtP lethal	PrP 5UTR inh	RN4220 kill
O/N=C1\CCCc2ccc3ccccc3c21	0.8	3264	x	x	x	-7.8	x
COc1cc(C(=O)Nc2nc(N)n(-c3ccccc3)n2)cc(OC)c1OC	5.0	4157	14.0	10.1	0.2	-18.5	0.5
COc1cc2c(cc1NC(C)=O)CCCC2	-2.8	6310	x	x	9.3	-28.1	6.1
O=C(Nc1nnc(SCC(=O)N2CCCC2)s1)C1CC(=O)N(c2ccccc2)C1 (configuration not stated)	2.7	5513	1.7	-1.1	2.5	-18.6	-1.4
Cc1cccc(C2=N/C(=C\c3cccs3)C(=O)O2)c1	6.5	4541	15.3	7.4	6.6	2.1	2.1
CCCC1C(c2ccccc2)C(C#N)(C#N)C2(C#N)CC1(N)NC2=O (configuration not stated)	-1.9	3260	3.7	7.2	-8.8	-19.2	2.5
O=C(CCc1nc2ccccc2s1)OCC(=O)c1ccc[nH]1	7.4	u	12.8	3.9	3.2	0.1	1.3
CCOCCCNC(=O)c1ccc(OC(C)=O)cc1	7.3	4372	3.6	4.8	8.1	-21.6	4.8
O=c1[nH]c(Cc2cccc(C(F)(F)F)c2)nc2ccccc12	-19.3	2644	9.9	-9.8	11.1	0.9	2.7
Clc1ccc(NCc2nncn2-c2ccccc2)cc1	5.2	3650	x	x	-0.1	-13.9	1.7
CCOc1ccc(-c2nnn(CC(=O)c3ccc4c(c3)OCCO4)n2)cc1	17.5	10910	14.7	7.9	1.8	-9.5	3.7
O=C1/C(=C/c2ccc([N+](=O)[O-])cc2)N2CCC1CC2	4.0	2609	-3.2	4.9	-0.5	-12.4	6.7
O=C1NC2(CCCC2)N=C1c1ccc(F)cc1	3.7	3852	21.9	6.4	2.8	-15.9	1.9
Cc1ccc(C2CN(C)C3(C(=O)Nc4ccccc43)C23COc2ccccc2C3=O)cc1 (configuration not stated)	1.9	4429	2.3	-3.2	-22.6	4.2	22.0
CCN1C(=O)C2C(c3ccc(-c4ccc5c(c4)OCO5)cc3)N[C@@](Cc3ccccc3)(C(=O)OC)C2C1=O (some centres not stated)	x	x	12.5	5.4	3.8	x	3.3

Single entries from the entries so far:
O/N=C1\CCCc2ccc3ccccc3c21 | BJeLR viability = 0.8
CCCC1C(c2ccccc2)C(C#N)(C#N)C2(C#N)CC1(N)NC2=O (configuration not stated) | Sa ugtP lethal = -8.8
CCOc1ccc(-c2nnn(CC(=O)c3ccc4c(c3)OCCO4)n2)cc1 | BJeLR viability = 17.5

Next section.
SMILES	BJeLR viability	Bead autofluor	Mtb hypoxia rep	Mtb hypoxia rep growth	Sa ugtP lethal	PrP 5UTR inh	RN4220 kill
CCOC(=O)c1c(N)n(C2CC(C)(C)NC(C)(C)C2)c2nc3ccccc3nc12	-0.3	5920	-11.2	2.7	7.3	12.6	2.2
O=C(Nc1nc2ccccc2n1CCOc1ccc(Cl)cc1)c1ccco1	-2.7	4847	10.0	6.6	-5.7	5.9	-9.7
CC(=O)c1cccc(NC(=O)CN(c2ccccc2F)S(C)(=O)=O)c1	3.5	22974*	14.6	2.4	0.7	-8.9	0.5
Cn1ccnc1SCC(=O)Nc1ccc(Cl)cn1	1.0	2507	1.6	3.8	9.1	-7.5	2.5
COc1ccc(OC)c(C2=NS(=O)(=O)N(C)C(C(=O)N3CCC4(CC3)OCCO4)=C2)c1	-7.6	5773	-9.8	-1.3	1.2	-3.8	6.2
COc1ccc(N(CC2CO2)S(=O)(=O)c2ccc(C)cc2)cc1 (configuration not stated)	5.8	5669	13.5	15.1	4.7	5.5	0.8
Cc1cccc(NC(=S)Nn2cnnc2)c1C	-3.4	4324	15.9	-1.0	2.6	1.6	11.7

In another format: entries from further up
SMILES,BJeLR viability,Bead autofluor,Mtb hypoxia rep,Mtb hypoxia rep growth,Sa ugtP lethal,PrP 5UTR inh,RN4220 kill
Cc1cccc(NC(=S)Nn2cnnc2)c1C,-3.4,4324,15.9,-1.0,2.6,1.6,11.7
O=C(Nc1nc2ccccc2n1CCOc1ccc(Cl)cc1)c1ccco1,-2.7,4847,10.0,6.6,-5.7,5.9,-9.7
CCOC(=O)c1c(N)n(C2CC(C)(C)NC(C)(C)C2)c2nc3ccccc3nc12,-0.3,5920,-11.2,2.7,7.3,12.6,2.2
COc1ccc(OC)c(C2=NS(=O)(=O)N(C)C(C(=O)N3CCC4(CC3)OCCO4)=C2)c1,-7.6,5773,-9.8,-1.3,1.2,-3.8,6.2
Cn1ccnc1SCC(=O)Nc1ccc(Cl)cn1,1.0,2507,1.6,3.8,9.1,-7.5,2.5
CC(=O)c1cccc(NC(=O)CN(c2ccccc2F)S(C)(=O)=O)c1,3.5,22974*,14.6,2.4,0.7,-8.9,0.5

Screening results: PubChem, several laboratories
